# HPGD inh – HPGD (human) dehydrogenase inhibition; P15428; purified HPGD, NADH fluorescence kinetic, PGE2 substrate; Potency, µM, inactives show at the top dose activity change, negative = inhibition, actives largely listed as inhibitors; hit rate 4.3% among 150,000; AID 894; active = well fitted inhibition curve with a large enough effect (not every such curve was filed as active); inconclusive = small, poorly fitted or top-dose-only effect, or another doubt; inactive = no such curve, though single readings can be large or run the other way;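 further: top concentration of the series not given in the record; plate controls included wells without enzyme; inactives centre near -10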
# Target sequence (P15428 whole entry, looked up): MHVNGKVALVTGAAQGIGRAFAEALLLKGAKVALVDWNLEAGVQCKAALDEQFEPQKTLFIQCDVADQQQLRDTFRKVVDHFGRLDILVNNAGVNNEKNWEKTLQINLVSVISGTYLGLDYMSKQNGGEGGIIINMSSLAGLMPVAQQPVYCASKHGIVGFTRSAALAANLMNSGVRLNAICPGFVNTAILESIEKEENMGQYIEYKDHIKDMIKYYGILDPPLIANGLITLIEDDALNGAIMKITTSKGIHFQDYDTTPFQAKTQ
#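 NADH formation kinetics: reaction with 30 uM PGE2 and 1 mM NAD+ (final), 20 nM enzyme, Tris-HCl pH 8 with Tween 20, after 15 min compound preincubation at room temperature. Fluorescence change, last versus first of five reads.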
# * hit, by the source's call; ? = inconclusive. On the % scale 0 is the no-effect control and ±100 the full control effect; potency means the concentration at half of the fitted maximal effect. A portion of the library; the hit share may differ from the screen's.
structure | HPGD inh
CC(Oc1ccc(C(=O)c2ccccc2)cc1)C(=O)Nc1ccc(S(N)(=O)=O)cc1 (centres undefined) | ?
Cc1ccc(-c2nnc(SCC(=O)N/N=C/c3ccc(C)s3)n2-c2ccccc2)cc1 | -7%
CCOC(=O)N1CCN(C(=O)NC23CC4CC(CC(C4)C2)C3)CC1 | 4%
CC(C)(C)n1ncc2c(=O)n(CC(=O)OCc3ccccc3)cnc21 | -9%
COc1ccc(/C=N/c2c(-c3ccc(OC)cc3)nc3n2CCS3)cc1 | -8%
Cc1cccnc1NS(=O)(=O)c1cccc([N+](=O)[O-])c1 | -11%
CCC(=O)Nc1ccc(NC(=O)c2ccco2)c(OC)c1 | 3%
COc1cc(NC(=O)CSc2nnnn2Cc2ccc3c(c2)OCO3)cc(OC)c1 | -7%
CCC(C)Nc1nc(OC(C(F)(F)F)C(F)(F)F)nc(OC(C(F)(F)F)C(F)(F)F)n1 (centres undefined) | -12%
Cc1ccccc1NC(=S)NNc1ncc(C(F)(F)F)cc1Cl | -13%
CCCCC(=O)N(Cc1ccc(-c2ccccc2-c2nn[nH]n2)cc1)C(C(=O)O)C(C)C (centres undefined) | -8%
CCn1nc(C(=O)OCC(=O)Nc2ncc(Cl)c(C)c2Cl)c2ccccc2c1=O | -8%
COC(=O)c1coc(-c2ccc(C)cc2)c1C(=O)OC | -23%
Cc1c(CCC(C)C)c(-n2ccnc2C)n2c(nc3ccccc32)c1C#N | -9%
CCOC(=O)C1=C(C)NC(=O)NC1c1ccc(OC(=O)c2ccco2)c(OC)c1 (centres undefined) | -7%
CN(Cc1ccco1)c1ncnc2ccc(-c3cccc(C#N)c3)cc12 | ?
CC(C)(C)C1CCC(=O)C(C2(O)C(=O)Nc3ccccc32)C1 (centres undefined) | -9%
CC(=O)c1cccc(NC(=O)c2ccc(NS(=O)(=O)c3c(C)noc3C)cc2)c1 | -13%
CCCn1c(N)nc2ccccc21 | -3%
COc1ccccc1CNc1ccnc(-c2ccoc2)n1 | -19%

# Continued (7 carried over from the part before).
structure | HPGD inh
Cc1c(CCC(C)C)c(-n2ccnc2C)n2c(nc3ccccc32)c1C#N | -9%
CCOC(=O)C1=C(C)NC(=O)NC1c1ccc(OC(=O)c2ccco2)c(OC)c1 (centres undefined) | -7%
CN(Cc1ccco1)c1ncnc2ccc(-c3cccc(C#N)c3)cc12 | ?
CC(C)(C)C1CCC(=O)C(C2(O)C(=O)Nc3ccccc32)C1 (centres undefined) | -9%
CC(=O)c1cccc(NC(=O)c2ccc(NS(=O)(=O)c3c(C)noc3C)cc2)c1 | -13%
CCCn1c(N)nc2ccccc21 | -3%
COc1ccccc1CNc1ccnc(-c2ccoc2)n1 | -19%
Cc1nn(Cc2ccc(Cl)cc2Cl)c(C)c1NC(=O)C1C2CCC(O2)C1C(=O)O (centres undefined) | -18%
Nc1ncnc2c1ncn2[C@H]1O[C@@H](C(=O)OCCO)[C@@H](O)[C@H]1O | -3%
CCC(=O)Nc1ccc(C(=O)Nc2cc(C)on2)cc1 | -13%
C=C(C(C)=O)C(O)c1cccc(Br)c1 (centres undefined) | -5%
CCOC(=O)N1CCN(C(=O)CN(Cc2ccc(Cl)cc2)S(=O)(=O)c2ccccc2)CC1 | -3%
Cc1nc2c3c4c(sc3n3c(SCC(=O)NCc5ccco5)nnc3n2n1)COC(C)(C)C4 | -20%
O=C(COc1ccccc1)Nc1nc2ccccc2[nH]1 | -2%
Cc1nc(NC(=O)c2ccccc2)sc1-c1csc(N)n1 | -14%
COC(=O)C(C)NS(=O)(=O)c1ccc(NC(C)=O)cc1 (centres undefined) | -6%
O=C(NC(Nc1ccc(F)cc1)(C(F)(F)F)C(F)(F)F)c1cccnc1 | -6%
Cc1cc(C)c(C#N)c(SCc2cn3c(C)cccc3n2)n1 | -24%
O=C(Nc1ccc2c(c1)OCO2)c1ccc(CN2CCOCC2)cc1 | 1%
CC(C)(C)n1ncc2c(=O)n(CC(=O)NCc3ccccc3)cnc21 | -6%
C=CCn1c2ccccc2c2nnc(SCCCn3c(=O)[nH]c4ccccc43)nc21 | 14µM*
CCC(Sc1nc(C)cc(=O)[nH]1)C(=O)Nc1ccc(Cl)cn1 (centres undefined) | -14%
O=C(NCCc1ccccc1)C1CCN(c2nc3ccccc3o2)CC1 | -23%
COc1ccc(CCN2CN(S(=O)(=O)c3ccc(C)cc3)c3nc4ccccc4nc32)cc1OC | -9%
Clc1ccc(Cn2c(/C=C/c3ccco3)nc3ccccc32)cc1 | ?
O=C(CSc1nnc2ccccn12)NC(=O)NC1CCCCC1 | -7%
Cc1cc(Cl)ccc1OC(C)C(=O)NCCc1ccc2c(c1)OCCO2 (centres undefined) | -13%
O=C(Nc1cccc2ccccc12)N1CC=CCC1 | -15%
Cc1ccc(NC(=O)Cn2cccc2)cc1C | ?
CN1/C(=C\C(=S)NC(=O)c2ccc([N+](=O)[O-])cc2)C(C)(C)c2ccccc21 | -1%
CCNC(=S)N1CCN(c2ccccc2OCC)CC1 | -8%
COc1ccc(-n2c(C)cc(C(=O)CN3C(=O)c4ccccc4C3=O)c2C)cc1 | -11%
O=C(c1ccncc1)N(Cc1ccco1)Cc1cc2ccccc2[nH]c1=O | -14%
CCN1C(=O)C(O)(CC(=O)c2cc(C)ccc2C)c2ccccc21 (centres undefined) | -10%
Cc1[nH][nH]c(=O)c1C(c1ccc(-c2ccc(Cl)cc2)o1)c1c(C)[nH][nH]c1=O | ?
CCN(Cc1ccccc1)S(=O)(=O)c1ccc(S(=O)(=O)N(Cc2ccccn2)Cc2ccco2)cc1 | -5%
COc1ccc(NS(=O)(=O)c2cc(-c3nnnn3C)ccc2OC)cc1 | -6%
C/C(N)=C(/C#N)C(=O)CSc1nnc(-c2ccc(OC(F)F)cc2)o1 | -11%
COc1nc(N2CCOCC2)nc(C)c1[N+](=O)[O-] | -9%
O=C(c1ccco1)N1CCN(c2nc(C3CC3)nc3c2nnn3Cc2ccccc2Cl)CC1 | ?
CCNc1ccc(C(=O)OCC)cc1NC(=O)c1cc(S(=O)(=O)N2CCOCC2)ccc1C | -13%
Cc1cccc(CSc2nc3ccncc3n2CC(=O)Nc2ccc(C)c(C)c2)c1 | ?
COc1ccc(NC(C)=O)cc1NC(C)C(=O)Nc1cc(C(F)(F)F)ccc1N1CCOCC1 (centres undefined) | -5%
CCN(CCCNC(=O)CN(C)S(=O)(=O)c1cccc2nsnc12)c1cccc(C)c1 | -19%
CCN(C(=O)c1cn(CC)c(=O)c2cc(OC)c(OC)cc12)c1ccccc1C | 2%
O=[N+]([O-])c1cc(S(=O)(=O)N2CCCC2)ccc1NN=C1CCCC1 | -5%
COc1ccc(-c2nc3cnc(N4CCNCC4)nc3n(Cc3ccc(F)cc3)c2=O)cc1 | -5%

# The last three records of the part before lead into the next:
structure | HPGD inh
CCN(C(=O)c1cn(CC)c(=O)c2cc(OC)c(OC)cc12)c1ccccc1C | 2%
O=[N+]([O-])c1cc(S(=O)(=O)N2CCCC2)ccc1NN=C1CCCC1 | -5%
COc1ccc(-c2nc3cnc(N4CCNCC4)nc3n(Cc3ccc(F)cc3)c2=O)cc1 | -5%
N#C/C(=C\c1ccc(O)c(O)c1)C(=O)NCc1ccccc1 | ?
O=C(Nc1nccs1)c1cccc(NC(=O)C2CC2)c1 | 5%
Cc1cc(NS(=O)(=O)c2ccc(NC(=O)C(C(C)C)N3C(=O)c4ccccc4C3=O)cc2)nc(C)n1 (centres undefined) | -11%
Cc1cccnc1NC(=O)c1ccccc1-c1ccccc1C(=O)Nc1ncccc1C | -13%
COc1ccc(OC)c(C2CC(=O)N3CN(c4ccccc4)CSC3=C2C#N)c1 (centres undefined) | 7.1µM*
CCOC(=O)C1=C(C)Nc2sc(C(=O)c3ccc(C)cc3)c(N)c2C1c1ccc(C(=O)OC)cc1 (centres undefined) | -10%
CCN(CC)CCCNC(=O)c1cn(CCOC)c(=O)c2c1c1ccccc1n2C | ?
COc1ccc(NC(=O)c2ccc(CN3CCN(c4ccccc4)CC3)cc2)cc1OC | ?
CCn1c(SCC(=O)Nc2nc(-c3ccc(C)cc3)cs2)nnc1-c1ccccc1 | -15%
O=c1c2c3nc4ccccc4nc3n(-c3cccc(F)c3)c2ncn1Cc1ccc2c(c1)OCO2 | -1%
Cc1ccc(NCN2C(=O)C3C4CCC(C4)C3C2=O)cc1 (centres undefined) | -2%
CC(=O)OC1CC2(C)C(=O)CCC2C2CCc3cc(O)ccc3C12 (centres undefined) | -9%
COc1ccc(/C=C/C2=C[C@]3(C)C[C@]2(C)[C@H](c2ccc(OC)cc2)CC3=O)cc1 | -3%
CCCCOc1ccc(C(=O)NCc2ccccn2)cc1 | ?
C=C1c2ccccc2O[C@H](C(=O)OCC)[C@@H]1CC(C)(C)c1ccccc1 | -14%
O=C(NCCSCc1ccco1)Nc1ccccc1 | -9%
COc1ccc(N(CC(=O)N2CCc3ccccc32)S(=O)(=O)c2c(C)nn(C)c2C)cc1 | -4%
Cc1ccc(S(=O)(=O)Nc2nc(C)cc(NCCN)n2)cc1 | 1%
CCOc1cc(/C=N/n2cnnc2)ccc1O | ?
COc1ccccc1C(=O)NCC(=O)n1nc(C)cc1C | -17%
Cc1cc(C)n(C(=O)C23CC4CC(CC(C4)C2)C3)n1 | 0%
CCOc1ccc(C2CC(c3cccc(C)c3)n3nc(N)nc3N2)cc1 (centres undefined) | -2%
CSC(SC)=C(C(C)=O)C(=O)c1ccc(C)cc1 | -12%
CC(=O)N(C(C)=O)c1c(N2CCOCC2)c2ccccc2oc1=O | -15%
N=c1n(CCc2ccccc2)c2ccccc2n1Cc1ccccc1F | -8%
O=C(NNS(=O)(=O)c1ccccc1)C1CCN(S(=O)(=O)c2ccccc2)CC1 | -5%
CCOC(=O)C(C)n1cnc2c(nnn2Cc2ccc(Cl)cc2)c1=O (centres undefined) | -9%
CCOc1ccccc1NC(=O)C1C2C=CC(C2)C1C(=O)O (centres undefined) | -4%
COc1ccc(CCNS(=O)(=O)c2ccc3c(c2)OCCO3)cc1 | -6%
CC1CCN(c2nnc(-c3cccs3)c3ccccc23)CC1 | -17%
N#C/C(=C\c1cn(CCOc2ccccc2)c2ccccc12)C(=O)NCC1CCCO1 (centres undefined) | ?
COc1ccccc1-n1c(C)nc2cc(C(=O)O)ccc21 | -23%
O=C(CSc1nc2ccccc2s1)N1CCN(C(=O)c2ccco2)CC1 | -27%
Cc1ccc(C(=O)Nc2ccc3c(c2)OCO3)cc1S(=O)(=O)N1CCCC1 | -12%
C#CCN1C(C)=C(C(=O)OC)C(c2cccc([N+](=O)[O-])c2)C(C(=O)OCC)=C1C (centres undefined) | -17%
Cn1c(=O)[nH]c(=O)c2c1nc1n2CCCS1 | -5%
C[C@@H](N)/C(N)=N/O | -9%
Cc1onc(-c2ccccc2Cl)c1C(=O)Nc1sc2c(c1C(N)=O)CCC(C)C2 (centres undefined) | -12%
CCOC(=O)CSc1nc(-c2ccccc2)nc2ccccc12 | -10%
CCOC(=O)C1=C(C)Nc2nc(C)nn2C1c1cc(OC)ccc1OC (centres undefined) | -15%
CCn1c(SCC(=O)c2ccc3ccccc3c2)nnc1-c1cccs1 | -18%
CC1O[C@@H](O[C@@H]2C(O)C[C@H](O[C@@H]3C(O)C[C@@H](OC4CC[C@@]5(C)C6CC(O)[C@@]7(C)C(C8=CC(=O)OC8)CC[C@@]7(O)C6CC[C@@H]5C4)OC3C)OC2C)CC(O)[C@H]1O (some centres undefined) | -12%
Cc1ccc(Cn2c(Cc3ccccc3)nc3ccccc32)cc1 | -6%
Cn1c(CNc2nc(-c3ccccc3)cs2)nnc1SCC(=O)OC1CCCCC1 | 1%
CN(C)/C=c1\sc2c(C#N)cc(C(=O)c3ccc(Br)cc3)n2c1=O | -12%
O=C(O)CC/C=C\CC[C@H]1[C@@H](N2CCCCC2)[C@@H](O)C[C@@H]1OCc1ccc(-c2ccccc2)cc1 | 2%
Cc1cc(NC(=O)CSc2nnc(-c3ccc(Cl)s3)o2)no1 | ?
Cc1cc(C(=O)OCC(=O)Nc2cccc(S(=O)(=O)N3CCOCC3)c2)c(C)o1 | -7%
Cc1ccc(-c2cc(-c3ccccc3Cl)[nH]n2)c(O)c1 | ?
N/C(=N\OS(=O)(=O)c1ccccc1)c1ccccn1 | -24%

# (next part)
structure | HPGD inh
O=c1cc(-c2ccc(O)c(O)c2)oc2cc(OC3OC(CO)C(O)C(O)C3O)cc(O)c12 (centres undefined) | -1%
CC1C2CC(C(CN(C)C)/C2=N/O)C1(C)C (centres undefined) | -2%
COc1cccc(C(=O)c2c[nH]c(C(=O)NCc3cccs3)c2)c1 | -8%
Cc1ccc(Oc2nc3c(c(=O)n(Cc4ccccc4F)c(=O)n3C)n2C)cc1 | -8%
CC(C)(C)[Si](C)(C)c1c2c(nc3ccc(OCc4ccccc4)cc13)-c1cccc(=O)n1C2 | ?
CC(C)C(=O)Nc1ccc(C(=O)NCc2cccnc2)cc1 | -2%
O=C(O)/C=C\c1c2ccc(=O)c(O)c-2oc2c(O)c(O)ccc12 | 2.8µM*
CCOc1ccccc1C1C(C(N)=O)=C(C)Nc2nc(-c3ccc(OC)cc3)nn21 (centres undefined) | -15%
Cc1ccc(CN2CCN(/N=C/c3ccc(C(=O)O)cc3)CC2)cc1 | -22%
O=C(O)c1ccc(C(=O)Nc2cccc(NC(=O)C3CCCO3)c2)cc1 (centres undefined) | 22µM*
